# Screening data: PubChem BioAssay, several laboratories
# Insulin prom inh – inhibitors of insulin promoter-driven GFP, primary screen, imaging, TRM-6 cells (human fetal islet line), eGFP reporter, cell count; reporter expression induced with tamoxifen; inhibition, % at 2 µM; 130,000 tested, 0.9% active; AID 1273, 2008;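 active means inhibition above the mean plus 3 SD, with well images judged a real hit on visual review, cut at about 60% in these data, passing the limit was not always enough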
# GALR2 agonist – GALR2 receptor agonists, primary screen, cell-based | GALR2-expressing cells, agonist activation read-out | activation, %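 (tested at 5 µM)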 | 140,000 tested, 0.48% active;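 active means above mean plus 3 SD of all compounds, about 5% in these data, not always enough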;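 further: 0% = vehicle buffer wells and 100% = reference agonist at full effect; tested in CHO reporter cells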
# HSV augment – enhancers of HSV replication in host cells, fold increase, host cell viability. HSV replication augmentation in cells. maximum fold increase. 220,000 tested, 0.005% active. AID 1956, 2009;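 active means peak rise of 1.5-fold or more in the series; tested in PC3 cells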;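 further: first round at 10 µM; read as green reporter fluorescence; hits show the peak of a series up to 25 µM; 1 = signal of infected wells without compound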
# PKD1 inh – inhibitors of human PKD1 kinase, biochemical, fluorescence polarization | Serine/threonine-protein kinase D1 (Homo sapiens), Q15139 | PKD1 kinase fluorescence polarization assay | inhibition, %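 (about 10 µM by stock and volumes)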 | 200,000 tested, 0.056% active | AID 797, 2007;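 active means inhibition of 50% or more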;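 further: controls were vehicle for no effect and a reference inhibitor for full effect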
# Target sequence (Q15139 whole entry, looked up): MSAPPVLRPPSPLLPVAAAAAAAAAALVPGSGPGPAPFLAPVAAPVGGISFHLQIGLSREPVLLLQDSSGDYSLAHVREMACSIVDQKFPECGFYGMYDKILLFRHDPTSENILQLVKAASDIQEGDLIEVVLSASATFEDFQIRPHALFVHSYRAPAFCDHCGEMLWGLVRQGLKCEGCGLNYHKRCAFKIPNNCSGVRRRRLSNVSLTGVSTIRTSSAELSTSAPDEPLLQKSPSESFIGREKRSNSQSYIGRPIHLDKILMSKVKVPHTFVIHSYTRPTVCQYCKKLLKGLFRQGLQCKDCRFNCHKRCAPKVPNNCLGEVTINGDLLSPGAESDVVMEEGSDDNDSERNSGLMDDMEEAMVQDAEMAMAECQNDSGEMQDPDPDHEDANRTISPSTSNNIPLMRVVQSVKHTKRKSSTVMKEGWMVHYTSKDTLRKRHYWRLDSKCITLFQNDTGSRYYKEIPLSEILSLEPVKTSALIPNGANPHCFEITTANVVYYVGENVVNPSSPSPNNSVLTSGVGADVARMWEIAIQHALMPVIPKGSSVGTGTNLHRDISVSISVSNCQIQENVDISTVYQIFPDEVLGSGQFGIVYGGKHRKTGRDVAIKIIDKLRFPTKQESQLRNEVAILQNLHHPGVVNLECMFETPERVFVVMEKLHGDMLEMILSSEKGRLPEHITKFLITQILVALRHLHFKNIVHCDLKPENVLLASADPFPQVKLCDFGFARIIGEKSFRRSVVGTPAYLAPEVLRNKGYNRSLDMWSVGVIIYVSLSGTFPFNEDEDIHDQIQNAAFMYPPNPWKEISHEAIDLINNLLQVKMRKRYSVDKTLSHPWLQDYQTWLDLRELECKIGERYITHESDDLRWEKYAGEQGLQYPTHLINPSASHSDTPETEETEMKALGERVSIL
# RGS16-Gao HTS – modulators of RGS16 binding to Galphao, primary screen, biochemical, human proteins, multiplexed bead flow cytometry | Regulator of G-protein signaling 16 (Homo sapiens) + Guanine nucleotide-binding protein … | bead-based flow cytometry RGS16-Galphao binding, fluorescence; actives lie on both sides | binding response (% of control), % at 10 µM | 220,000 tested, 0.38% active | AID 1441, 2008;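 active means below 25% or above 175%, edge rows of some plates excepted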;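 further: Galphao activated by GDP with aluminum fluoride before binding; 100% = wells without compound and 0% = beads without RGS; some results beyond the cut were filed as inactive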
# Insulin prom inh cell count – recorded beside Insulin prom inh, whose call it bears; normalized cell count, %; measured here: cell count, toxicity; reference of the scale not given here;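 cells exposed to compound for 48 h; stained nuclei by imaging scaled within each plate; lower means fewer cells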
# HSV augment primary fold – recorded beside HSV augment, whose call it bears; fold increase; compound at 10 µM; measured here: primary screen fold increase 10 uM; tested in PC3 cells;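 GFP signal in the first replicate; 1 = infected wells without compound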
# * hit, by the source's call; i = inactive; . = not tested or not shown.
SMILES,Insulin prom inh,Insulin prom inh cell count,GALR2 agonist,HSV augment,HSV augment primary fold,PKD1 inh,RGS16-Gao HTS
O=C(/C=C\c1ccccc1)Nc1ccc(NC(=O)c2ccco2)cc1,.,.,.,i,0.85,-7,97
O=C(O)CCCN1C(=O)C(=O)/C(=C(/O)c2ccccc2)C1/C=C/c1ccccc1 (stereo unspecified),-6,147,.,i,1,-9,105
COc1ccccc1Oc1cc(F)nc(N)n1,-3,110,-1.3,i,1,-5,104
COc1ccccc1OCCCc1c(C)n[nH]c1C,0,111,-1.6,i,1,6,97
Cc1cccc(-c2nc(CN3CCCC(C(=O)NC4CCCC4)C3)c(C)o2)c1 (stereo unspecified),-39,107,0.9,i,0.76,7,97
O=C(NCc1ccc(Cl)cc1)c1cc(=O)nc2sc(-c3ccccc3)nn12,-17,130,-1.2,i,0.84,-7,108
CCN1CCN(Cc2nc3c(c(=O)n(C)c(=O)n3C)n2C(C)C(C)=O)CC1 (stereo unspecified),31,44,-2.4,i,0.93,1,104
CCCC(C)NC(=O)c1ccc(-c2ccccc2)cc1 (stereo unspecified),.,.,.,i,1.1,-1,101
O=C(CCNC(=O)Cn1ccc2ccccc2c1=O)NCCN1CCN(c2ccccc2F)CC1,-14,121,-0.1,i,0.88,2,.
COc1ccc(-c2csc(NC(=O)c3ccco3)n2)cc1,-33,158,-2.6,i,1.1,-4,102
O=C(Nc1c(C(=O)N2CCOCC2)cnn1-c1ccccc1)c1ccco1,-64,156,0.0,i,1.2,-4,103
Cc1c(Nc2cc(N3CCCCCC3)c3nonc3c2[N+](=O)[O-])c(=O)n(-c2ccccc2)n1C,36,157,-1.2,i,0.96,-7,99
Cc1ccc(S(=O)(=O)NN2C(=O)/C(=C/c3ccccn3)SC2=S)cc1,14,112,-1.8,i,1.1,-5,106
O=C(COC(=O)c1ccccc1C(=O)c1ccccc1)NCc1ccc(F)cc1,.,.,.,i,1.1,1,104
CC(=O)c1ccc(OCC(C)C)c(Cc2c(O)nc(N)[nH]c2=O)c1,41,61,-0.8,i,0.89,5,110
O=C(NCc1cccs1)c1cccnc1C(=O)O,-43,91,-0.2,i,1,-2,99
CCCC[n+]1ccc(-c2nc3ccc([N+](=O)[O-])cc3[nH]2)cc1,9,50,-1.0,i,1,-3,68
CSc1nc(N)nc(N(C)C)n1,.,.,.,i,0.99,.,106
O=C(N/N=C/c1ccc(O)cc1O)c1ccc(CN2C(=O)c3cccc4cccc2c34)cc1,.,.,.,i,0.62,3,89
CCC(=O)N1N=C(c2ccc(NS(C)(=O)=O)cc2)CC1c1ccc(N(C)C)cc1 (stereo unspecified),.,.,.,i,1,9,98
CCCCNC(=S)Nc1cc(S(=O)(=O)N2CCCCC2)ccc1C,.,.,.,i,1.3,.,101
CCOc1cccc2cc(C(N)=O)c(=NCc3ccccc3)oc12,-34,106,-1.7,i,0.95,7,119
NC(=O)CN1C(=O)C2CCCCN2C(=O)c2ccccc21 (stereo unspecified),9,101,-0.6,i,1,-13,113
Clc1cccc(Cl)c1/C=N\Nc1nccs1,-52,54,0.0,i,0.82,-4,80
Cc1ccc(C(=O)NCc2ccc(Cl)cc2)o1,-204,67,-4.4,i,0.85,-6,94
O=C(/C=C/c1ccc(Cl)cc1)Nc1nccs1,.,.,.,i,0.93,-5,99
CCC(=S)/C=C1\Sc2ccc3ccccc3c2N1CCCS(=O)(=O)O,.,.,-1.9,i,1.1,-7,82
O=C(Nc1ccccc1)c1ccc2nc(-c3ccco3)c(-c3ccco3)nc2c1,8,72,1.6,i,1,4,84
CC(C)NCc1cccc([N+](=O)[O-])c1,.,.,-0.3,i,0.94,-8,137
CN(C)S(=O)(=O)c1ccc(NC(=O)CSc2n[nH]c(=O)n2C2CC2)cc1,-43,104,.,i,0.9,-2,106

# Reformatted with each value named: part of the list above
Cc1ccc(C(=O)NCc2ccc(Cl)cc2)o1
  Insulin prom inh = -204	Insulin prom inh cell count = 67	GALR2 agonist = -4.4	HSV augment = i	HSV augment primary fold = 0.85	PKD1 inh = -6	RGS16-Gao HTS = 94
O=C(/C=C/c1ccc(Cl)cc1)Nc1nccs1
  Insulin prom inh = .	Insulin prom inh cell count = .	GALR2 agonist = .	HSV augment = i	HSV augment primary fold = 0.93	PKD1 inh = -5	RGS16-Gao HTS = 99
CCC(=S)/C=C1\Sc2ccc3ccccc3c2N1CCCS(=O)(=O)O
  Insulin prom inh = .	Insulin prom inh cell count = .	GALR2 agonist = -1.9	HSV augment = i	HSV augment primary fold = 1.1	PKD1 inh = -7	RGS16-Gao HTS = 82
O=C(Nc1ccccc1)c1ccc2nc(-c3ccco3)c(-c3ccco3)nc2c1
  Insulin prom inh = 8	Insulin prom inh cell count = 72	GALR2 agonist = 1.6	HSV augment = i	HSV augment primary fold = 1	PKD1 inh = 4	RGS16-Gao HTS = 84

# New compounds follow
SMILES,Insulin prom inh,Insulin prom inh cell count,GALR2 agonist,HSV augment,HSV augment primary fold,PKD1 inh,RGS16-Gao HTS
Cc1ccc(-c2nn(CCC#N)cc2C=C(C#N)C#N)cc1,32,70,-3.0,i,0.93,-6,100
CN1C(=O)C(C(=O)Nc2ccccc2F)c2ccccc21 (stereo unspecified),50,127,-1.4,.,.,-2,77
CCOC(=O)CSc1nc2ccccc2c(=O)n1-c1ccc(C(=O)NCCOC)cc1,21,63,-1.5,i,0.84,-1,100
O=C(OCC(O)CN1CCCCC1)C12CC3CC(CC(C3)C1)C2 (stereo unspecified),.,.,-1.2,i,1.1,-1,113
CCOC(=O)C1CCCN(c2c(NCCCN(CC)c3cccc(C)c3)c(=O)c2=O)C1 (stereo unspecified),.,.,0.7,i,0.96,-4,102
COc1ccc(-c2nc(CS(=O)CC(=O)NCc3ccccn3)c(C)o2)cc1 (stereo unspecified),.,.,-1.2,.,.,-1,99
COc1ccccc1N1CCN(c2cc(=O)n(-c3ccc(Cl)cc3)c(=O)[nH]2)CC1,.,.,-2.5,i,0.72,-2,.
COC(=O)NCCOC(=O)N(O)c1ccc(Br)cc1,-73,66,-0.4,i,0.98,0,92
O=C(COc1ccc2c(c1)OCO2)NC12CC3CC(CC(C3)C1)C2,-8,93,0.5,i,1.2,-9,104
Cc1ccc(/C=C/C(=O)N2CCN(c3ncccn3)CC2)o1,43,104,-0.7,i,1.1,-11,85
Cc1nc2ccc(NC(=O)N3CCCCC3)cc2s1,46,105,-1.5,i,1,-11,104
CCOc1cc(/C=N/n2cnnc2)c(Br)cc1O,.,.,-0.5,i,1.2,2,104
O=C(c1ccc(COc2ccc(F)cc2)o1)n1cc(Br)cn1,12,172,-1.1,i,0.84,-6,100
COc1ccc(C)cc1NC(=O)CSc1nc(SC)ns1,45,93,-1.7,i,0.95,-3,103
COc1ccc(CC(=O)c2ccc(OC)c(OC)c2)cc1,24,76,-1.0,i,1,-9,57
Cc1ccc(OCC(=O)c2cc(C)n(C3CC3)c2C)c([N+](=O)[O-])n1,.,.,0.3,i,0.97,13,96
COCc1cc(=O)[nH]c(SCC(=O)Nc2ccccc2)n1,57,91,1.0,i,0.92,-6,97
O=C(c1cc(=O)[nH]c2ccccc12)N1CCN(S(=O)(=O)c2ccc3ccccc3c2)CC1,14,162,-2.8,i,0.98,-1,99
Cn1c(Cc2ccccc2)nnc1SCc1ccc(C(=O)O)cc1,75*,104*,-0.7,i,0.84,11,43
CCOc1cccc(OCCOc2ccccc2[N+](=O)[O-])c1,21,79,-0.5,i,1.1,-3,104
COc1ccc(C(C#N)(CCC#N)CCC#N)cc1OC,-36,115,-2.3,i,0.93,1,103
Cc1ccc(NC(=O)c2cc(NC(=O)C3CC=CCC3C(=O)O)ccc2N2CCOCC2)cc1Cl (stereo unspecified),-10,129,-1.5,i,0.66,-5,111
CC(=O)Nc1ccc(NC(=O)[C@@H]2CCCC[C@@H]2C(=O)O)cc1,.,.,.,i,1.2,-3,93
COC(C[C@H]1O[C@H]1C(=O)COCc1ccccc1)OC,.,.,.,i,0.83,.,102
Cc1cc(C)cc(N=c2c([N+](=O)[O-])nn(-c3ccc4c(c3)OCCO4)n2O)c1,36,65,.,i,0.69,-2,99
COc1ccc(/C=C/C(=O)OCc2cc(=O)n3c(n2)sc2ccccc23)cc1,.,.,0.7,i,1,-2,69
COc1ccc2cc(C(=O)Nc3ccccc3)sc(=O)c2c1OC,20,135,0.2,i,0.85,-4,108
O=C(CCc1nc2ccccc2c(=O)[nH]1)N1CCN(C/C=C/c2ccccc2)CC1,-55,82,-0.7,i,0.87,-16,100
O=C(NCC1CCCO1)c1csc2c1CCCC2 (stereo unspecified),.,.,0.3,i,0.9,11,97
Cc1cc(Br)c(NC(=O)COC(=O)CSc2nnc(-c3ccc(Cl)cc3)o2)c(Br)c1,-8,100,-0.2,i,0.97,-8,110
c1ccc2c(-c3cn4ccccc4n3)c[nH]c2c1,-64,165,.,i,0.92,1,126
CNc1ccc(OC(F)F)cc1C(=O)c1ccccc1,.,.,-1.1,i,1.1,-7,31
Cc1ccc(NC(=O)c2ccc3ccccc3n2)nc1,-24,107,-0.1,i,0.91,-4,101
CC(=O)Nc1ccc(NC(=O)/C(=C/c2ccco2)NC(=O)c2ccccc2)cc1,.,.,.,i,1.2,7,100
COC(=O)c1ccccc1C(=O)N1CCOCCN(C(=O)c2ccccc2C(=O)OC)CCOCC1,.,.,-1.5,i,1.1,-1,93
Cn1c(=O)c2c(nc(NCc3ccccc3)n2Cc2ccc(F)cc2)n(C)c1=O,.,.,-2.7,i,0.93,1,100
COc1ccc([N+](=O)[O-])cc1NC(=O)CCCOc1ccccc1,-93,78,0.8,i,1,7,66
CSc1ccc(C#N)cc1NC(=O)c1ccc(Cl)nc1,-8,104,.,i,1,1,99
CC(C)NCCCOc1ccc(C(C)(C)c2ccccc2)cc1,42,80,-0.2,i,1,-7,98
O=C(O)CCC1(c2ccccc2)NC(=O)NC1=O (stereo unspecified),.,.,.,i,1,.,100
COCCn1nnnc1C(c1ccc(C(F)(F)F)cc1)N1CCOCC1 (stereo unspecified),14,40,-1.6,i,0.81,-4,97
Cc1c(Cl)c([N+](=O)[O-])nn1CCCC(=O)Nc1cc(Oc2ccccc2)cc([N+](=O)[O-])c1,.,.,-0.9,i,0.98,1,100
C#CCOCCOCCOCCNc1nc(N2CCN(C(=O)[C@H](CCC(=O)O)n3cc(C(N)CO)nn3)CC2)nc(N2CCN(C(=O)[C@H](CCC(=O)O)n3cc(C(N)CC(C)C)nn3)CC2)n1 (stereo partly specified),.,.,.,i,0.8,.,99
CC1CCCCN1c1ncnc2ccccc12 (stereo unspecified),-46,47,-2.1,i,0.8,-2,99
O=C(NCc1nc2ccccc2[nH]1)C1=C[C@@H](C2CCCCC2)C[C@@H](OCCCCO)O1,.,.,.,i,0.88,.,102

# Among those listed so far, these contain a cyano group:
SMILES,Insulin prom inh,Insulin prom inh cell count,GALR2 agonist,HSV augment,HSV augment primary fold,PKD1 inh,RGS16-Gao HTS
Cc1ccc(-c2nn(CCC#N)cc2C=C(C#N)C#N)cc1,32,70,-3.0,i,0.93,-6,100
COc1ccc(C(C#N)(CCC#N)CCC#N)cc1OC,-36,115,-2.3,i,0.93,1,103
CSc1ccc(C#N)cc1NC(=O)c1ccc(Cl)nc1,-8,104,.,i,1,1,99

# (further entries)
SMILES,Insulin prom inh,Insulin prom inh cell count,GALR2 agonist,HSV augment,HSV augment primary fold,PKD1 inh,RGS16-Gao HTS
COc1ccc(C(=O)c2oc3ccccc3c2N)cc1,-306,55,1.1,i,0.82,1,102
COc1ccccc1NC(=O)CCC(=O)N/N=C(/C)c1ccc(C)cc1,10,120,-0.5,i,0.85,-3,16*
Nc1cc(N2CCCCC2)c(Cl)cc1[N+](=O)[O-],-73,113,-3.5,i,0.86,1,109
COC(=O)N/N=C/c1cc(C)n(-c2ccccc2)c1C,.,.,1.3,i,0.94,-1,115
N#C/C(=C\c1ccccc1)c1ccccn1,.,.,.,i,0.96,0,101
Nc1nnc(CCN2C(=O)CSC2=O)s1,25,128,-3.1,i,0.86,-7,64
S=C1NC2=C(CCCC2=C2SCCCS2)C(c2ccccc2)N1 (stereo unspecified),-75,33,.,i,0.94,-2,101
N#Cc1c(-c2cccs2)cc(C2CC2)nc1SCC(N)=O,9,76,-2.4,i,1,-4,102
O=C(c1ccc(S(=O)(=O)N2CCOCC2)cc1)N(c1ccccn1)C1CCCCC1,.,.,.,i,0.88,.,98
Cc1nc(Nc2ccncc2)c2oc3ccccc3c2n1,19,59,0.8,i,0.62,-5,101
COc1ccccc1CCn1cc(C#N)c(=O)[nH]c1=O,.,.,.,i,1.1,.,77
COc1ccc(/C=N/N2CCN(c3ccncc3S(=O)(=O)N3CCCCC3)CC2)cc1,-13,98,-3.3,i,1,4,45
